Screening results: PubChem, National Center for Advancing Translational Sciences (NCATS)
Vaccinia Venus – inhibitors of vaccinia virus (Venus reporter). Potency, µM (highest dose often 36.5 µM), inactives show at the top dose activity change, negative = inhibition, usual class: inhibitors. Vaccinia virus Venus reporter expression, fluorescence. AID 720580. 330,000 compounds, 0.46% hits; active means well fitted inhibition curve with a large enough effect; inconclusive means small, poorly fitted or top-dose-only effect; inactive means no such curve, though single readings can be large or run the other way; tested in A549 cells; further: nearly all actives have a fitted effect of over 30% in size; inactives centre near -10
VACV mCherry inh – vaccinia inhibition (mCherry reporter) | Vaccinia virus mCherry reporter infection, fluorescence; about a quarter of the inactives have no number | Potency, µM (top dose mostly 36.5 µM), inactives show at the highest dose activity change, negative = inhibition, usual class: inhibitors | 310,000 compounds, 0.63% hits; active = well fitted inhibition curve with a large enough effect; inconclusive = small, poorly fitted or top-dose-only effect; inactive = no such curve, though single readings can be large or run the other way; tested in A549 cells; further: nearly all actives have a fitted effect of over 35% in size; inactives centre near -10
* hit, by the source's call. On the % scale 0 is the no-effect control and ±100 the full control effect; potency means the concentration at half of the fitted maximal effect.

Screening CCOC(=O)N1CCC(NC(=O)CCC(=O)N2CC(C)Oc3ccc(Cl)cc32)CC1 (stereo unspecified) returned Vaccinia Venus -5%.
Screening Cc1cc(C)c(C#N)c(SCC(=O)Nc2c(C)n(C)n(-c3ccccc3)c2=O)n1 returned Vaccinia Venus 0% and VACV mCherry inh -7%.
`Cc1ccc(NC(=O)COc2ccccc2)c(NC(=O)c2ccccc2C)c1` gave Vaccinia Venus -5% and VACV mCherry inh -1%.
`N#Cc1ccccc1Cn1c(=O)n(CCCC(=O)NCc2ccccc2Cl)c(=O)c2ccccc21` gave Vaccinia Venus inconclusive and VACV mCherry inh inconclusive.
Screening COc1ccc(CCNC(=O)CCCn2c(=S)[nH]c3cc4c(cc3c2=O)OCO4)cc1OC returned Vaccinia Venus -20% and VACV mCherry inh -14%.
For Cc1cccc(C)c1NC(=S)NN1CCN(C)CC1 the results were Vaccinia Venus -12% and VACV mCherry inh -22%.
Screening CC1=C(C(=O)Nc2ccccc2)C(c2ccc(O)cc2)n2nc(SCc3ccccc3)nc2N1 (stereo unspecified) returned Vaccinia Venus -15% and VACV mCherry inh -20%.
`Cc1cccc(-c2nc(CSc3nncn4c3cc3sccc34)c(C)o2)c1` gave Vaccinia Venus -19% and VACV mCherry inh -23%.
C[C@H](CO)N1C[C@H](C)[C@@H](CN(C)C(=O)Nc2ccccc2F)Oc2ncc(Br)cc2C1=O was read as Vaccinia Venus -10% and VACV mCherry inh -6%.
`C(=C\c1ccccc1)/CN1CCN(C(c2ccccc2)c2nnnn2-c2ccc3c(c2)OCCO3)CC1` (stereo unspecified) gave Vaccinia Venus -4% and VACV mCherry inh inactive.
For Cc1cccc(NC(=O)Oc2ccc(Cl)c3cccnc23)c1 the results were Vaccinia Venus inconclusive and VACV mCherry inh inconclusive.
Screening NC(=O)Cc1nc(-c2ccccc2)cs1 returned Vaccinia Venus -5% and VACV mCherry inh -9%.
For CSc1nc(=S)n(-c2cc(C)ccc2C)c(C)c1C(C)=O the results were Vaccinia Venus -11% and VACV mCherry inh -7%.
For CCCCCNC(=O)C1C(=O)Nc2ccccc2C(=O)N1C(C)(C)C (stereo unspecified) the results were Vaccinia Venus -10% and VACV mCherry inh -5%.
For COc1ccc(-c2csc(NC(=O)Cc3ccccc3F)n2)c(OC)c1 the results were Vaccinia Venus -9% and VACV mCherry inh -27%.
For CCN(CC)S(=O)(=O)c1ccc(Cl)c(NC(=O)c2ccc(C#N)cc2)c1 the results were Vaccinia Venus -15% and VACV mCherry inh -19%.
Cc1ccc(NC(=O)c2oc3ccccc3c2NC(=O)C2CCCO2)cc1C (stereo unspecified) was read as Vaccinia Venus 3% and VACV mCherry inh -18%.
`Cc1ccc(C(O)c2ncc(-c3ccccc3Cl)[nH]2)c(C)c1` (stereo unspecified) gave Vaccinia Venus -11% and VACV mCherry inh 12%.
For CC1(C)CC(NC(=O)C2CCC(=O)N(C3CC3)C2)CC(C)(C)C1 (stereo unspecified) the results were Vaccinia Venus -11% and VACV mCherry inh -19%.
Nc1ncc(Br)cc1S(=O)(=O)N1CCCCCC1 was read as Vaccinia Venus -11% and VACV mCherry inh inactive.
Cc1csc(NC(=O)c2ccc3nc[nH]c3c2)n1 was read as Vaccinia Venus 5% and VACV mCherry inh 3%.
Screening CC1CN(CCOc2ccccc2-c2ccccc2)CC(C)O1 (stereo unspecified) returned Vaccinia Venus -29% and VACV mCherry inh -10%.
`O=C(CC(=O)Nc1ccccc1[N+](=O)[O-])Nc1ccccc1[N+](=O)[O-]` gave Vaccinia Venus -19% and VACV mCherry inh -16%.
Screening COc1ccc(NC(=O)CCCc2nc(-c3ccco3)no2)c(OC)c1 returned Vaccinia Venus -1% and VACV mCherry inh -6%.
Screening COc1cc(OC)cc(-c2nnc(Nc3nc4c(F)cccc4s3)o2)c1 returned Vaccinia Venus -1% and VACV mCherry inh inactive.
`COc1ccc(C(=O)CSc2nnc(NC(=O)C3CC(=O)N(c4cccc(OC)c4)C3)s2)cc1` (stereo unspecified) gave Vaccinia Venus -11% and VACV mCherry inh inactive.
COc1ccccc1N(C(=O)c1ccco1)C(C(=O)NC1CCCCC1)c1cc(OC)c(OC)c(OC)c1 (stereo unspecified) was read as Vaccinia Venus 6% and VACV mCherry inh -14%.
For COc1ccc(-c2cc(C(=O)NCc3ccco3)c3ccccc3n2)cc1OC the results were Vaccinia Venus 2% and VACV mCherry inh -5%.
`CCc1ccccc1NC(=O)N1CCN(c2cc(-c3noc(C)n3)ccc2C)CC1` gave Vaccinia Venus 0% and VACV mCherry inh -7%.
`Cc1coc2cc3oc(=O)c(Cc4ccccc4)c(C)c3cc12` gave Vaccinia Venus -2% and VACV mCherry inh -17%.
`Cc1ccc(NC(=O)CCn2cnc3onc(-c4ccc(F)cc4)c3c2=O)c(Br)c1` gave Vaccinia Venus 0% and VACV mCherry inh -9%.
Screening CC1(C)N=C(c2ccccc2)C(c2ccccc2)=N1 returned Vaccinia Venus 6% and VACV mCherry inh inactive.
`Cc1cccc(OCc2nc(-c3ccc(-n4cccc4)cc3)no2)c1` gave Vaccinia Venus -19% and VACV mCherry inh -3%.
Screening COc1ccc(NC(=S)Nc2ccccc2OC)c(OC)c1 returned Vaccinia Venus -1% and VACV mCherry inh -16%.
O=[N+]([O-])c1cc2c(cc1/C=N/Nc1nc(N3CCCC3)nc(N3CCCC3)n1)OCO2 was read as Vaccinia Venus 0% and VACV mCherry inh inactive.
`CCN(CC)S(=O)(=O)c1ccc(N2CCOCC2)c(NC(=O)c2cnccn2)c1` gave Vaccinia Venus -7% and VACV mCherry inh -7%.
Screening CCN1CC2(COC(=O)c3ccccc3N)CCC(OC)C34C5CC6C(OC)CC(O)(C5C6OC)C(O)(C(OC)C23)C14 (stereo unspecified) returned Vaccinia Venus -7% and VACV mCherry inh -5%.
`CCN1C(=O)c2cccc3c(S(=O)(=O)Nc4ncccc4C)ccc1c23` gave Vaccinia Venus -13% and VACV mCherry inh -20%.
`Cc1c(C#N)c2ncn(CCCN(C)C)c(=O)c2n1-c1ccccc1` gave Vaccinia Venus -9%.
`CC1CCN(C(=O)CNC(=O)CNC(=O)Cc2ccccc2)CC1` gave Vaccinia Venus -6% and VACV mCherry inh inactive.
For CC[C@]12c3[nH]c4cc(-c5ccco5)ccc4c3CCN1C(=O)[C@@H](CC(=O)NCc1cccc(C(F)(F)F)c1)C[C@@H]2C(=O)N1CCN(C(=O)C2CC2)CC1 the results were Vaccinia Venus inconclusive and VACV mCherry inh inconclusive.
Cc1nnc(SCc2cccs2)[nH]c1=O was read as Vaccinia Venus 6%.
CN(CC(=O)Nc1ccc(F)c(F)c1F)C(=O)C1CC(=O)N(C2CCCC2)C1 (stereo unspecified) was read as Vaccinia Venus -14% and VACV mCherry inh inactive.
For Cc1csc(=O)n1CC(=O)OCC(=O)c1c(N)n(C)c(=O)n(C)c1=O the results were Vaccinia Venus -1% and VACV mCherry inh -21%.
`CCOC(=O)c1c(-c2ccc(F)cc2)csc1/N=C/N(C)C` gave Vaccinia Venus -24% and VACV mCherry inh -8%.
`CCOC(=O)C1CCN(C(c2cccs2)c2sc3nc(C)nn3c2O)CC1` (stereo unspecified) gave Vaccinia Venus 1% and VACV mCherry inh inactive.
O=c1c2ccccc2cnn1Cc1n[nH]c(=S)n1-c1cc(Cl)cc(Cl)c1 was read as Vaccinia Venus -16% and VACV mCherry inh -9%.
O=C1CCCCCC[C@@H](O)[C@H](O)C[C@H](c2ccccc2)O1 was read as Vaccinia Venus 10% and VACV mCherry inh inactive.
CCC1(c2ccc(F)cc2)NC(=O)N(CC(=O)Nc2ccc(N3CCCCC3)cc2)C1=O (stereo unspecified) was read as Vaccinia Venus -18% and VACV mCherry inh -6%.
`Cc1ccc(N2CC(C(=O)N3CCc4ccccc4C3)CC2=O)cc1` (stereo unspecified) gave Vaccinia Venus -14% and VACV mCherry inh -14%.
`COc1cccc(-c2nc(CS(=O)(=O)CC(=O)Nc3c(C)cc(C)cc3C)c(C)o2)c1` gave Vaccinia Venus -29% and VACV mCherry inh -36%.
Screening O=C1NC[C@@H](Cc2ccc(O)cc2)N(CCc2cccc(F)c2)C1=O returned Vaccinia Venus -6% and VACV mCherry inh 0%.
`O=C(O)c1cccc2c1Cc1cc([N+](=O)[O-])ccc1-2` gave Vaccinia Venus 1% and VACV mCherry inh inconclusive.
For CCc1c(O)nc(SCC(=O)Nc2ccccc2)n(C(C)CC)c1=O (stereo unspecified) the results were Vaccinia Venus -7% and VACV mCherry inh inactive.
For Cc1ccc(NC(=O)c2cccc3cccnc23)cc1 the results were Vaccinia Venus 11% and VACV mCherry inh -15%.
For COC(=O)c1cc2sc(Cl)cc2n1Cc1nc(-c2ccccc2C)oc1C the results were Vaccinia Venus -8% and VACV mCherry inh -19%.
For CCCCN(C(=O)CCC(=O)Nc1cc(C)on1)C(C(=O)NC1CCCC1)c1ccccc1C (stereo unspecified) the results were Vaccinia Venus -10% and VACV mCherry inh -19%.
CCOC(=O)CNS(=O)(=O)c1ccc(S(=O)(=O)NC2CC2)cc1 was read as Vaccinia Venus -6% and VACV mCherry inh -14%.
`O=C(N/N=C(\c1ccccc1)c1ccccn1)c1cccc([N+](=O)[O-])c1` gave Vaccinia Venus inconclusive and VACV mCherry inh inconclusive.
For CCN1C(=O)[C@@H]2[C@H](C1=O)[C@@H]1CC(C(=O)OC)=C[C@@H](C(=O)OC)C3C1=C(C(=O)C3(CC)CC)[C@@H]2C (stereo partly specified) the results were Vaccinia Venus -4% and VACV mCherry inh -3%.

Copied from the results shown for reference:
Screening CCOC(=O)N1CCC(NC(=O)CCC(=O)N2CC(C)Oc3ccc(Cl)cc32)CC1 (stereo unspecified) returned Vaccinia Venus -5%.
Screening Cc1cc(C)c(C#N)c(SCC(=O)Nc2c(C)n(C)n(-c3ccccc3)c2=O)n1 returned Vaccinia Venus 0% and VACV mCherry inh -7%.

Following part.
Screening CCC(=O)c1ccc(OCC(O)CN2CCN(c3ccccn3)CC2)cc1 (stereo unspecified) returned Vaccinia Venus -15% and VACV mCherry inh inactive.
Screening COc1cc2c(cc1NC(=S)Nc1cccc3ccccc13)oc1ccccc12 returned Vaccinia Venus -16%.
`CC1Cc2ccccc2N1S(=O)(=O)c1cccc(C(=O)c2nccn2C)c1` (stereo unspecified) gave Vaccinia Venus -13% and VACV mCherry inh inactive.
Screening O=S(=O)(c1ccccc1)N1CCC2(CC1)OCCN2S(=O)(=O)c1cccs1 returned Vaccinia Venus -13% and VACV mCherry inh -16%.
Clc1cccc2sc(-c3nnc(-c4ccccc4)o3)c(Cl)c12 was read as Vaccinia Venus -4% and VACV mCherry inh -14%.
Screening COC(=O)c1ccc(CN2CCC(Oc3cccc(C(=O)N4CCCC4)c3)CC2)cc1 returned Vaccinia Venus -20% and VACV mCherry inh inactive.
For O=S(=O)(Nc1cc2nc3ccccc3nc2n1Cc1ccccc1)c1ccc(Cl)cc1 the results were Vaccinia Venus -4% and VACV mCherry inh inactive.
`Cc1cccc(-c2nnc(SCc3cc(=O)c4cccc(Cl)c4[nH]3)n2C)c1` gave Vaccinia Venus -24% and VACV mCherry inh -28%.
For CC(=O)NC(Cc1ccccc1)C(=O)OCC(=O)c1ccccc1 (stereo unspecified) the results were Vaccinia Venus -21% and VACV mCherry inh -1%.
CC1CCCN(S(=O)(=O)c2ccc(NC(=O)Cc3ccc(S(=O)(=O)N4CCOCC4)s3)cc2)C1 (stereo unspecified) was read as Vaccinia Venus -14% and VACV mCherry inh -9%.
Cc1cc(N2CCC(C(=O)Nc3ccc(F)cc3)CC2)nc(-c2ccccc2)n1 was read as Vaccinia Venus -27% and VACV mCherry inh inconclusive.
For COCCCNC(=O)c1ccccc1SC the results were Vaccinia Venus -2% and VACV mCherry inh 1%.
For COCCC(=O)N1CCC(Oc2ccc(C(=O)N(C)Cc3cc(C)no3)cc2)CC1 the results were Vaccinia Venus -13% and VACV mCherry inh -15%.
For O=C(O)CNC(=O)c1ccc(Oc2c(F)c(F)c(Oc3ccc(C(=O)NCC(=O)O)cc3)c(F)c2F)cc1 the results were Vaccinia Venus -7% and VACV mCherry inh -20%.

Structures from the list above that have a Cl atom (ten):
Screening CCOC(=O)N1CCC(NC(=O)CCC(=O)N2CC(C)Oc3ccc(Cl)cc32)CC1 (stereo unspecified) returned Vaccinia Venus -5%.
`N#Cc1ccccc1Cn1c(=O)n(CCCC(=O)NCc2ccccc2Cl)c(=O)c2ccccc21` gave Vaccinia Venus inconclusive and VACV mCherry inh inconclusive.
For Cc1cccc(NC(=O)Oc2ccc(Cl)c3cccnc23)c1 the results were Vaccinia Venus inconclusive and VACV mCherry inh inconclusive.
For CCN(CC)S(=O)(=O)c1ccc(Cl)c(NC(=O)c2ccc(C#N)cc2)c1 the results were Vaccinia Venus -15% and VACV mCherry inh -19%.
`Cc1ccc(C(O)c2ncc(-c3ccccc3Cl)[nH]2)c(C)c1` (stereo unspecified) gave Vaccinia Venus -11% and VACV mCherry inh 12%.
O=c1c2ccccc2cnn1Cc1n[nH]c(=S)n1-c1cc(Cl)cc(Cl)c1 was read as Vaccinia Venus -16% and VACV mCherry inh -9%.
For COC(=O)c1cc2sc(Cl)cc2n1Cc1nc(-c2ccccc2C)oc1C the results were Vaccinia Venus -8% and VACV mCherry inh -19%.
Clc1cccc2sc(-c3nnc(-c4ccccc4)o3)c(Cl)c12 was read as Vaccinia Venus -4% and VACV mCherry inh -14%.
For O=S(=O)(Nc1cc2nc3ccccc3nc2n1Cc1ccccc1)c1ccc(Cl)cc1 the results were Vaccinia Venus -4% and VACV mCherry inh inactive.
`Cc1cccc(-c2nnc(SCc3cc(=O)c4cccc(Cl)c4[nH]3)n2C)c1` gave Vaccinia Venus -24% and VACV mCherry inh -28%.
